Assay outcomes (PubChem BioAssay)
E coli growth – E. coli growth inhibition | Escherichia coli growth, OD600, 23 h; active compounds read low | OD600 absorbance (concentration not given with the values) | actives 0.21% (n = 330,000) | AID 1053175;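 active = OD600 absorbance below the run mean of sample wells minus 3.6 SD, in any replicate, cut at about 0.56 in these data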;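 also: stock transfer was 300 nL into about 60 µL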
FGF22 binding – shifts melting point of recombinant human FGF22; Q9HCT0; recombinant FGF22 thermal shift, SYPRO orange fluorescence; percent of sucrose octasulfate shift, DMSO zero; calls only at 9.99 µM; actives 1.5% (n = 340,000); AID 651658;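 active = melting point raised past a set limit in the mean and every replicate; three in four hits are not shown here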
Target sequence (Q9HCT0 whole entry, looked up): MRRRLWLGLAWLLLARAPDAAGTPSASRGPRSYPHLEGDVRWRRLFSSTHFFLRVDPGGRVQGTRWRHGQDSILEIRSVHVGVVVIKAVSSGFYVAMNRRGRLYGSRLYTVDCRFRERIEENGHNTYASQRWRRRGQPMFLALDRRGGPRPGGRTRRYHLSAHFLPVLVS
Beta apoptosis – beta cell apoptosis inhibition. actives 0.8% (n = 300,000). INS-1E cytokine-induced death, ATP luminescence, 48 h; percent of positive-control rescue, neutral wells zero. protection from apoptosis, % (concentration not given with the values);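 active = all replicates at 75% or more, or half of them and the mean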;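 also: 0% = cytokine-treated negative control wells and 100% = positive control rescue; higher means more ATP so stronger rescue from cytokine killing; wells of about 40 µL received 100 nL stock; the first replicate is given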
MLL AF4-AF9 inh – inhibitors of human MLL-AF4/AF9 interaction. P42568. AlphaScreen, biotin-AF4 peptide binding to FLAG-AF9. inhibition, % at 10 µM. actives 0.47% (n = 350,000);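 active = every replicate reaching a set inhibition limit, whatever the replicate mean, cut at about 25% in these data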;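 also: 0% = plate neutral control median and 100% = total signal loss; the record names both 10 and 1 µM as test concentration; the first replicate is given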
Target sequence (P42568 whole entry, looked up): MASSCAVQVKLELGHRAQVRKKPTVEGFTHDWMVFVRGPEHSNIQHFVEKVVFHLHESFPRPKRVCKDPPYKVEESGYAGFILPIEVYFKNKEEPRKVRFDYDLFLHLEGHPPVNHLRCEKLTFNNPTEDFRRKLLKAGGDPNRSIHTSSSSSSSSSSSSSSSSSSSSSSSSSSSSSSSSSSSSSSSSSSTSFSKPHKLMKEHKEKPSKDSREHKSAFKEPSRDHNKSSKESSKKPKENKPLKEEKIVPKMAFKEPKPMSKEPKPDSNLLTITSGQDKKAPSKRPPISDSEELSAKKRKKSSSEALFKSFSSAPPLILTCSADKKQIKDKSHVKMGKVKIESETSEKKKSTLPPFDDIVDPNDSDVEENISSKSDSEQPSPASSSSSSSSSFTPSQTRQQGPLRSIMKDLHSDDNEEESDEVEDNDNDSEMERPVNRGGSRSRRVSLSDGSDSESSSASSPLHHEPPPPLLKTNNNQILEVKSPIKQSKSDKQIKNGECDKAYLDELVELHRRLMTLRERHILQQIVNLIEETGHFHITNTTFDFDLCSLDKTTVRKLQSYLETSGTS
UCH37 DUB inh – inhibitors of human deubiquitinating enzyme UCH37 | purified proteasome/UCH37, Ub-AMC cleavage fluorescence | inhibition, % (concentration not given with the values) | actives 0.33% (n = 330,000);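 active = mean of two replicates above 20%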;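 also: 0% = compound-free wells with enzyme and 100% = wells lacking proteasome; stock transfer was 100 nL into about 20 µL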
Target sequence (Q9Y5K5 whole entry, looked up): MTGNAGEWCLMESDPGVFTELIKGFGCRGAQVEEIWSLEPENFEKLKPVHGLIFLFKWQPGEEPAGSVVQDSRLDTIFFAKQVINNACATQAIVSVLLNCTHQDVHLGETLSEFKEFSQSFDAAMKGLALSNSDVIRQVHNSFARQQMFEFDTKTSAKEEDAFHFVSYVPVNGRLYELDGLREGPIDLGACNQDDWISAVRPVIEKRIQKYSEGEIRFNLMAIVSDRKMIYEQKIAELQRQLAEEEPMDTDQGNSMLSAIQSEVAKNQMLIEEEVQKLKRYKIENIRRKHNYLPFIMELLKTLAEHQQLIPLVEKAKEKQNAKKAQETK
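Signal – fluorescence, ex 355 nm, em 460 nm · System – Proteasome-bound UCH37 · Input – 0.15 nM proteasome as dispensed · Timing – 30 min preincubation with enzyme, 25 min cleavage at room temperature · Read-out basis – percent inhibition of cleavage signal versus uninhibited and no-proteasome wells · Medium – Tris-HCl pH 7.4 with ATP-MgCl2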
T cruzi repl – T. cruzi replication inhibition | T. cruzi beta-gal in NIH3T3, luminescence, 90 h | inhibition, % (test concentration not listed) | AID 1885 | actives 1.4% (n = 300,000);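 active = mean inhibition across valid replicates above about 55%, limit read from the data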;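 also: signal also drops with host cell toxicity which is not excluded here; 0% = plate median of DMSO wells and 100% = zero luminescence signal; higher percent means less beta-gal luminescence so fewer parasites; stock transfer was 50 nL into about 50 µL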
Ecoli rRNA inh – inhibitors of bacterial rRNA selective over humanized ribosomes; E. coli WT GFP vs humanized-ribosome RFP mutants, fluorescence, 24 h; active compounds read low; DMSO median 0, no signal -100; GFP signal change (wild-type ribosome), % (no concentration beside the values); actives 1.6% (n = 350,000); AID 720706;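 active = significant combined selectivity score with lowered wild-type GFP, culture density cut under 30%, mutant RFP and density less affected; inactive = any of these conditions unmet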; also: one replicate is shown; some compounds called inactive have numbers as strong as hits
A1 inh – inhibitors of the anti-apoptotic protein A1, read as caspase activation; caspase activation, % (test concentration not listed); MEF A1-2A-BIM cells, Caspase-Glo 3/7 luminescence, 3 h; percent of clofoctol response, vehicle zero; actives 0.066% (n = 330,000);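 active = over half of replicate activation scores above 10%, or exactly half above 10 with the replicate mean above 10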;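 also: wells of about 30 µL received 50 nL stock; many hits fall short of the cut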
Ecoli rRNA inh OD600 – second read-out of Ecoli rRNA inh, no call of its own (marks repeat the call); OD600 change, %; measured here: OD600 growth;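 optical density of the mix in the first replicate; 0 = DMSO median and -100 = no signal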
Ecoli rRNA inh RFP – recorded beside Ecoli rRNA inh, whose call it bears; RFP signal change, %; measured here: RFP humanized mutant strains;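 first replicate; 0 = DMSO median and -100 = no signal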
* hit, by the source's call; i = inactive; . = not tested or not shown. This is a subset; the hit share may differ from the screen's.

SMILES | FGF22 binding | E coli growth | Ecoli rRNA inh OD600 | T cruzi repl | UCH37 DUB inh | Beta apoptosis | A1 inh | MLL AF4-AF9 inh | Ecoli rRNA inh | Ecoli rRNA inh RFP
COc1ccc(C(CC(=O)N2CCOCC2)c2c(O)cc(OC)cc2OC)cc1 (centres undefined) | i | 0.71 | -4 | -28 | 2.1 | -4 | -0.2 | 9.9 | -8 | -5.6
COc1cccc(OC)c1/C=C/C(=O)NC1CCCCC1 | i | 0.71 | -10 | 6 | 1.3 | -9 | 0.7 | 3.6 | -15 | -3.3
CCCOc1ccccc1OCC(=O)Nc1cc(Cl)ccc1-n1cncn1 | i | 0.66 | -7 | 12 | 4.8 | -1 | 0.2 | -10 | -1 | 0.0
Cc1cc(=O)[nH]c(SCCOc2ccc3c(c2)CCC3)n1 | . | 0.72 | . | -2 | 3.5 | . | -1.1 | . | . | .
CS(=O)(=O)c1ccc(Cl)c(NC(=O)CSc2n[nH]c(-c3cccs3)n2)c1 | i | 0.69 | . | . | 3.1 | 2 | 1.9 | -1.4 | . | .
Cc1cccc(CS(=O)(=O)Cc2ccc(C(=O)NC3CCCCC3)o2)c1 | i | 0.67 | -12 | 6 | 2.4 | 3 | 0.1 | 0.2 | -7 | 3.2
Oc1ccccc1C=NCCN=Cc1ccccc1O | i | 0.67 | 3 | -13 | 3.1 | 0 | 0.4 | -3.5 | 9 | -5.1
Cc1ccc(CSc2nnc(SCC(=O)N/N=C/c3ccc(C(=O)O)cc3)s2)cc1 | i | . | -2 | 6 | . | 0 | -4.2 | 4.5 | 7 | -3.1
CCN(CC)CCCNC(=O)c1cn(-c2cccc(OC)c2)c(=O)c2ccccc12 | i | 0.71 | 10 | -1 | 0.8 | -3 | -0.1 | -0.9 | 10 | -2.9
COc1cc(C(=O)N/N=C/c2sccc2C)cc(OC)c1OC | i | . | 24 | 14 | . | . | . | -0.5 | 20 | 1.0

Ordered by the number under Ecoli rRNA inh (low to high): 3 of the compounds above
smiles | Ecoli rRNA inh
COc1ccc(C(CC(=O)N2CCOCC2)c2c(O)cc(OC)cc2OC)cc1 (centres undefined) | -8
Cc1ccc(CSc2nnc(SCC(=O)N/N=C/c3ccc(C(=O)O)cc3)s2)cc1 | 7
CCN(CC)CCCNC(=O)c1cn(-c2cccc(OC)c2)c(=O)c2ccccc12 | 10

Next section:
SMILES | FGF22 binding | E coli growth | Ecoli rRNA inh OD600 | T cruzi repl | UCH37 DUB inh | Beta apoptosis | A1 inh | MLL AF4-AF9 inh | Ecoli rRNA inh | Ecoli rRNA inh RFP
Cc1cccn2c(=O)c(C=O)c(Nc3ccc(S(N)(=O)=O)cc3)nc12 | . | 0.65 | . | 12 | 0.3 | 27 | -0.2 | . | . | .
Cc1ccc(-c2noc(CN(C(=O)c3ccc4c(c3)OCO4)C(C)C)n2)cc1 | i | 0.6 | 3 | 19 | 0.3 | -4 | -0.5 | 0.3 | 3 | -0.6
COc1ccc(OC(C)C(=O)N(C)Cc2nc(-c3ccccc3)no2)cc1 (centres undefined) | i | 0.71 | -15 | 4 | 0.3 | -2 | 0.5 | 1.2 | -3 | 1.0
COc1ccccc1N1CCN(Cc2cnc3ccc(Cl)cn23)CC1 | i | 0.66 | 13 | -1 | 2.5 | . | . | -0.1 | 3 | 1.6
CCOC(=O)N1CCN(C(=O)CSc2nc3c([nH]c4ccccc43)c(=O)n2C)CC1 | i | 0.76 | 12 | 4 | -44 | -5 | 0.4 | 1.5 | 6 | -0.3
CCC(C)Nc1nnnc2c1sc1nc3c(cc12)COC(C)(C)C3 (centres undefined) | i | 0.69 | -4 | 12 | 5.7 | 2 | 0.3 | -1.4 | -6 | -18
CCCCn1c(N)c(N(CC(C)C)C(=O)c2cccs2)c(=O)[nH]c1=O | i | 0.66 | 9 | -6 | -1.0 | -6 | -0.2 | -4.4 | 6 | -2.7
CC1CCN(c2oc(-c3ccco3)nc2S(=O)(=O)c2ccccc2)CC1 | i | . | 14 | -6 | . | -3 | 1.4 | 8.8 | 28 | 3.0
O=C(COC(=O)c1ccc(F)cc1)Nc1ccc2c(c1)OCO2 | i | 0.7 | 9 | . | 1.1 | -5 | -0.2 | 0.5 | 2 | 0.4
O=C(O)CN1C(=O)/C(=C/c2cccc(Cl)c2)Oc2ccccc21 | i | 0.68 | -70 | -10 | -273 | -5 | 0.0 | -1.8 | -58 | -22
O=C(NCCCN1CCCC1=O)c1cccc(S(=O)(=O)Nc2ccc(Br)cc2)c1 | i | 0.59 | -59 | -8 | 1.7 | 8 | -0.8 | -8.5 | -38 | -8.2
CC1CCCC(NC(=O)CSC2=Nc3ccccc3C3CC=NN23)C1C (centres undefined) | i | 0.68 | 2 | . | 4.6 | -5 | -1.6 | 1.7 | 8 | 0.4
COc1ccc(S(=O)(=O)N(C)c2ccc(C(N)=O)cc2)cc1 | . | 0.66 | . | -9 | 0.2 | -8 | 1.3 | . | . | .
O=[N+]([O-])C(C1CCS(=O)(=O)C1)C1CCS(=O)(=O)C1 (centres undefined) | i | 0.72 | 22 | -5 | 0.5 | 0 | 1.5 | -2.0 | 16 | 0.1
N#Cc1c(-c2ccc(F)cc2)cc(-c2cccnc2)nc1N | i | . | 8 | -15 | . | 9 | 0.1 | 0.5 | 7 | 6.5
C=CCn1c(SCN2C(=O)c3ccccc3C2=O)nc2ccc(Cl)cc2c1=O | i | 0.69 | -3 | -25 | 8.5 | 98* | -0.2 | 3.6 | -3 | 3.5
Cc1ccc(-c2nc(NCCN3CCOCC3)c3ccccc3n2)cc1 | . | 0.65 | . | 23 | 1.2 | 5 | 0.5 | . | . | .
CC(C)C(=O)Nc1c(O)c2ccccc2[nH]c1=O | i | 0.64 | 5 | -9 | 0.1 | -3 | 1.5 | -13 | 21 | -1.7
Cc1sc(NC(=O)CN2CCOCC2)c(C#N)c1C | i | 0.65 | -10 | -10 | 1.7 | -5 | 0.6 | -4.3 | 2 | -1.8
CC(C(=O)N1CCc2ccccc21)n1cccc1 (centres undefined) | . | 0.68 | . | 7 | 3.9 | -3 | 0.4 | . | . | .
Nc1nc(SCC(=O)N2CCCC2)[nH]c(=O)c1NC(=O)c1ccco1 | i | 0.72 | 17 | -16 | 4.5 | 0 | -0.2 | 2.2 | 5 | 0.8
CC1(C)NC(=O)N(CC(O)CN(c2cccc([N+](=O)[O-])c2)S(=O)(=O)c2ccccc2)C1=O (centres undefined) | i | 0.66 | 10 | -2 | 0.6 | -4 | -0.6 | -11 | -7 | -2.3
O=C(NC(=S)Nc1ccc(CN2CCOCC2)cc1)c1ccco1 | i | 0.66 | 6 | -2 | 2.2 | 2 | 0.7 | -3.4 | -4 | 0.6
CCC(C)N1C(=O)CCC1C(=O)O (centres undefined) | . | 0.68 | . | -7 | 3.5 | 1 | -0.1 | . | . | .
Cc1nn(C(=O)N2CCCCC2)c(C)c1CN1C(=O)c2ccccc2C1=O | . | 0.69 | . | 5 | 1.1 | . | 1.1 | . | . | .
CCOC(=O)N1CCN(C(=O)CCSc2ccccc2)CC1 | . | 0.7 | . | -14 | 0.6 | -2 | -0.6 | . | . | .
Cc1nn(C)c(C(=O)N2CCOCC2)c1Cl | . | 0.69 | . | -10 | 5.3 | -1 | -0.5 | . | . | .
O=C(c1cccc(C(F)(F)F)c1)C1CCCN(Cc2cccn2-c2ncccn2)C1 (centres undefined) | i | 0.64 | -11 | 23 | 0.7 | 9 | -0.3 | 7.0 | -3 | 2.5
O=C(CC(=O)Nc1ccccc1C(F)(F)F)Nc1ccccc1C(F)(F)F | i | 0.71 | 7 | -5 | 4.9 | -2 | -0.9 | -1.6 | 4 | -0.6
Cc1cccc(NC(=O)CSc2nnnn2-c2ccc3c(c2)OCCO3)n1 | i | 0.69 | 12 | 0 | 1.0 | -2 | 0.0 | -0.1 | 12 | -1.9
O=C(OCC(=O)N1CCOCC1)c1ccc2[nH]c3c(c2c1)CCCC3 | i | 0.68 | -8 | 7 | -0.9 | -3 | -0.3 | 0.8 | -2 | -1.4
CCN(C(=O)COC(=O)C1COc2ccccc2O1)c1c(N)n(Cc2ccccc2)c(=O)[nH]c1=O (centres undefined) | i | 0.66 | 13 | . | 5.6 | . | . | 1.4 | 4 | -2.3
O=C(NNC(=S)NCc1ccccc1)c1ccc(Br)cc1 | i | 0.67 | -31 | -4 | 2.4 | 3 | -0.6 | -2.7 | -15 | -2.7
Cc1ccccc1S(=O)(=O)Cc1ccc(C(=O)NC2CCCCCC2)o1 | i | 0.64 | -4 | -4 | 2.0 | 1 | -1.8 | 0.2 | 1 | -0.5
Cn1c(C23CC4CC(CC(C4)C2)C3)n[nH]c1=S | . | 0.66 | . | 4 | -0.3 | 5 | 1.5 | . | . | .
Cc1ccc(NN=Nc2nc3c([nH]2)c(=O)n(C)c(=O)n3C)cc1 | i | . | 7 | -15 | . | -4 | -0.1 | 4.1 | 13 | 2.9
CC(C)(C)C(=O)CSc1ccc(S(=O)(=O)N2CCN(Cc3ccccc3)CC2)cn1 | i | 0.72 | -22 | . | -0.5 | -7 | -0.4 | -0.4 | -2 | -1.2
Cc1ccc2cc(CN(C)C(=O)C3CCCO3)c(=O)[nH]c2c1 (centres undefined) | . | 0.71 | . | -6 | -3.3 | -1 | 0.2 | . | . | .
COc1ccc(C)cc1S(=O)(=O)n1ccnc1C | i | 0.7 | 30 | -5 | -0.5 | . | 0.2 | -0.3 | 32 | 5.8
O=C(Nc1ccc2nc(-c3ccccc3)oc2c1)c1ccco1 | . | 0.75 | . | -2 | -23 | 6 | -3.3 | . | . | .
O=C(COC(=O)c1cc(S(=O)(=O)N2CCOCC2)ccc1Cl)NC1CC1 | i | 0.65 | 18 | . | 3.1 | 0 | 0.0 | 1.1 | 8 | 0.6
CCc1ccc2[nH]c(=O)c(CN(CCCN3CCOCC3)C(=O)Nc3cccc(Cl)c3)cc2c1 | . | 0.74 | . | 36 | -3.2 | 4 | -0.7 | . | . | .
O=C1NC(Cc2c[nH]c3ccccc23)C(=O)N1Cc1ccccc1 (centres undefined) | i | 0.71 | -2 | -2 | 4.1 | -6 | 0.3 | 0.3 | 9 | 1.4
COCCN1C(=O)Cc2c1nc(N)c1c(N)nc(N3CCN(c4ccc(F)cc4)CC3)c(C#N)c21 | i | 0.68 | 4 | -16 | -11 | -2 | -0.4 | 0.0 | -1 | -0.3
Cc1cc(N2C(=O)C(O)=C(C(=O)c3ccco3)C2c2ccc(O)cc2)no1 (centres undefined) | . | 0.76 | . | -11 | 1.6 | 4 | -0.3 | . | . | .
CSCc1ccc(C(=O)NC(C)c2ccc(-n3ccnc3)cc2)cc1 (centres undefined) | i | 0.69 | 1 | 12 | 1.4 | 3 | 0.3 | 2.4 | -1 | -0.1
Cc1ccc(Cl)cc1N1CCN(C(=O)c2ccc(NS(=O)(=O)c3c(C)noc3C)cc2)CC1 | . | 0.68 | . | 35 | 2.1 | -4 | -2.0 | . | . | .
